Screening results deposited in PubChem by Broad Institute.
MLL AF4-AF9 inh = MLL-AF4/AF9 protein interaction inhibition; AlphaScreen, biotin-AF4 peptide binding to FLAG-AF9; P42568; AID 651704; inhibition, % at 10 µM; 350,000 compounds, 0.47% hits;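 active means every replicate reaching a set inhibition limit, whatever the replicate mean, cut at about 25% in these data; inconclusive means mean inhibition reaches that limit but some replicates miss it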;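 further: 0% = plate neutral control median and 100% = total signal loss; the record names both 10 and 1 µM as test concentration; the first replicate is given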
Target sequence (P42568 whole entry, looked up): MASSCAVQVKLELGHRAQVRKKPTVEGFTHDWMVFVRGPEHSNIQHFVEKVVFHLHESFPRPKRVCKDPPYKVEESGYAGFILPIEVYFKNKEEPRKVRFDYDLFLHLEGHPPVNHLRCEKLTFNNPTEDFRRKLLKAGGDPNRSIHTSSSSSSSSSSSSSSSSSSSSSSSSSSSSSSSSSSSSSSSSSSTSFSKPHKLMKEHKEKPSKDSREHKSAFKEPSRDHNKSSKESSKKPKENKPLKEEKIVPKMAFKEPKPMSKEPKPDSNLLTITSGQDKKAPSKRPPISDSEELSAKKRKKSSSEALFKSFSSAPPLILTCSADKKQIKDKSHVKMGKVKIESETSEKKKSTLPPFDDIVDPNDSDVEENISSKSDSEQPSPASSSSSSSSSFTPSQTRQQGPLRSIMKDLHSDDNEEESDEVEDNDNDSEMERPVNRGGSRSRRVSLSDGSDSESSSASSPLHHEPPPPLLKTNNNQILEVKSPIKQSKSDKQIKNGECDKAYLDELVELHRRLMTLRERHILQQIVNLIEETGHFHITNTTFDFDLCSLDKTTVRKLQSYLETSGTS
RanGTP-Impb inh = inhibitors of RanGTP-importin-beta interaction, primary screen, biochemical, FRET, CFP-Ran, YFP-importin-beta, homogeneous; cell-free CFP-Ran/YFP-importin-beta FRET ratio; inhibition, % (concentration not given with the values); 300,000 compounds, 1.1% hits; AID 2216;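 active means most replicates above 15%; inconclusive means exactly half above 15%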;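 further: 0% = DMSO wells and 100% = Ran loaded with GDP instead of GTP; wells of about 40 µL received 100 nL stock; the first replicate is given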
T cruzi repl = blocks replication of Trypanosoma cruzi; T. cruzi beta-gal in NIH3T3, luminescence, 90 h; 300,000 compounds, 1.4% hits; inhibition, % (concentration not given with the values);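 active means mean inhibition across valid replicates above about 55%, limit read from the data; inconclusive means mean below that limit but half or more replicates reach it; inactive means mean below it, under half of replicates reach it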;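 further: signal also drops with host cell toxicity which is not excluded here; 0% = plate median of DMSO wells and 100% = zero luminescence signal; higher percent means less beta-gal luminescence so fewer parasites; stock transfer was 50 nL into about 50 µL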
Beta cell apopt = blocks beta cell apoptosis; INS-1E cytokine-induced death, ATP luminescence, 48 h; percent of positive-control rescue, neutral wells zero; protection from apoptosis, % (test concentration not listed); 300,000 compounds, 0.8% hits;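 active means all replicates at 75% or more, or half of them and the mean; inconclusive means half reach 75% but not the mean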;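 further: 0% = cytokine-treated negative control wells and 100% = positive control rescue; higher means more ATP so stronger rescue from cytokine killing; wells of about 40 µL received 100 nL stock; the first replicate is given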
ALR inh = inhibitors of human sulfhydryl oxidase ALR; P55789; purified ALR, DTT oxidation, H2O2 HRP-luminol luminescence; inhibition, % (no concentration beside the values); 290,000 compounds, 3.8% hits;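 active means mean and each replicate at 75% or more; inconclusive means only one of the two met; inactive means neither met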;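 further: stock transfer was 7.5 nL into about 7.5 µL; 0% = neutral wells and 100% = wells with inactivated enzyme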
Target sequence (P55789 whole entry, looked up): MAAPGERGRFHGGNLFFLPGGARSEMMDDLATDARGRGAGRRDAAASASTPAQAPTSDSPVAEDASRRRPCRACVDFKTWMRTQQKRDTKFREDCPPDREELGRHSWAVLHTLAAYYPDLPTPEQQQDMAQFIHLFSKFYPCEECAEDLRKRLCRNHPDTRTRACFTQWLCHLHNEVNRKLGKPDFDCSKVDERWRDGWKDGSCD
Ecoli rRNA inh = selective bacterial rRNA inhibition in E. coli. E. coli WT GFP vs humanized-ribosome RFP mutants, fluorescence, 24 h; stronger effect = lower value; DMSO median 0, no signal -100. GFP signal change (wild-type ribosome), % (test concentration not listed). 350,000 compounds, 1.6% hits. AID 720706;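 active means significant combined selectivity score with lowered wild-type GFP, culture density cut under 30%, mutant RFP and density less affected; inactive means any of these conditions unmet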; further: one replicate is shown; some compounds called inactive have numbers as strong as hits
Calb FLC = C. albicans growth modulation with fluconazole. C. albicans CaCi-2 (fluconazole-resistant clinical isolate) + fluconazole, Alamar Blue growth, 48 h. growth inhibition, % (test concentration not listed). 300,000 compounds, 0.57% hits. AID 1979;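 active means most replicates above 75%; inconclusive means exactly half above 75%; inactive means most below 75%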;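 further: all wells also contain fluconazole at 8 µg/ml as a sub-toxic cotreatment; 0% = median of DMSO wells and 100% = median of geldanamycin control wells; wells of about 8 µL received 7.5 nL stock; the first replicate is given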
FGF22 binding = binders of recombinant human FGF22 by thermal shift; 340,000 compounds, 1.5% hits; calls only at 9.99 µM; SYPRO orange fluorescence; percent of sucrose octasulfate shift, DMSO zero; Q9HCT0;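 active means melting point raised past a set limit in the mean and every replicate; inconclusive means no clear call; three in four hits are not shown here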
Target sequence (Q9HCT0 whole entry, looked up): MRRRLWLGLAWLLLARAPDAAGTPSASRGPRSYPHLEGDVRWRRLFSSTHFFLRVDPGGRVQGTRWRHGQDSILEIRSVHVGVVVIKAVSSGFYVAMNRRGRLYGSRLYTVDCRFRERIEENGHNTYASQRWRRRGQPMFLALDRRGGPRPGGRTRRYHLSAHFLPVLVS
Ecoli rRNA inh OD600 = second read-out of Ecoli rRNA inh, no call of its own (marks repeat the call); OD600 change, %; measured here: OD600 growth;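 optical density of the mix in the first replicate; 0 = DMSO median and -100 = no signal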
Ecoli rRNA inh RFP = recorded beside Ecoli rRNA inh, whose call it bears; RFP signal change, %; measured here: RFP humanized mutant strains;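 first replicate; 0 = DMSO median and -100 = no signal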
Active calls of the source: *; i = inactive; u = inconclusive; x = not tested or not shown. These rows are one share of the data; the hit share may differ from the screen's.

SMILES	MLL AF4-AF9 inh	RanGTP-Impb inh	T cruzi repl	Beta cell apopt	ALR inh	Ecoli rRNA inh	Ecoli rRNA inh OD600	Ecoli rRNA inh RFP	Calb FLC	FGF22 binding
O=C(c1cc2c(s1)-c1ccccc1S(=O)(=O)C2)N1CCCC1	1.2	0.7	3.9	-0.5	-4.3	-6.9	1.0	-1.8	8.3	i
CCOc1ccc(/C=C/C(=O)C(C(N)=O)=C2SCCS2)cc1	1.7	1.1	1.8	-9.2	-21.7	16.4	8.5	0.5	-3.0	i
Cc1nc(C)c(-c2ccc(SCc3cccc(F)c3)nn2)s1	0.7	2.4	-9.1	-2.7	-5.7	-36.1	-37.8	-5.7	46.1	i
CCC(CO)[n+]1c(C)cc(/C=C2\Sc3ccccc3N2Cc2ccccc2)cc1C (stereo not drawn)	0.8	x	x	104.5*	98.2*	5.8	-7.6	1.0	x	i
Cc1ccc(NC(=O)CSc2ccc(-c3cccnc3)nn2)cc1	-1.9	7.7	-8.2	1.9	-3.1	x	x	x	1.0	i
O=C(COc1ccc(-c2ccccc2)cc1)Nc1cccnc1	1.0	x	x	-3.5	-6.5	-21.4	-35.5	-7.7	x	i
O=C(CSc1nnc(Nc2ccccc2)s1)Nc1cccnc1Cl	x	-1.6	-6.7	0.0	4.3	x	x	x	u	x
O=C(C1CCCN(S(=O)(=O)c2cccc3cccnc23)C1)N1CCN(c2ccc(F)cc2)CC1 (stereo not drawn)	3.2	-2.0	10.1	-1.7	x	-11.6	-17.2	-0.6	-4.1	i
C[C@H](NC(N)=O)C(=O)Nc1ccc2c(c1)OCO2	u	2.1	-11.1	-2.9	-11.1	3.4	4.6	-4.8	1.3	i
O=C(N/N=C/c1cn(-c2ccccc2)nc1-c1cccnc1)c1cccnc1	-0.9	4.5	1.7	3.7	12.7	2.5	9.8	4.0	28.7	i
CCOc1ccc(NC(=S)Nc2ccccc2C2(C)CC2)cc1	1.6	-1.5	5.9	x	-9.6	-11.4	2.6	1.0	-17.0	i
CS(=O)(=O)NCCOc1ccc(S(=O)(=O)NCCOc2ccccc2)cc1	-2.0	-5.7	5.7	-2.8	-0.8	1.6	-1.1	0.4	42.2	i
CCOC(=O)c1c(NC(=S)N2CCN(C)CC2)sc2c1CCN(C(=O)OCC)C2	13.0	1.9	34.8	x	-19.6	14.8	9.8	-0.9	4.3	x
O=C(O)/C=C/C(=O)Nc1ccc(OC(F)F)cc1	-1.0	0.0	-7.7	-5.7	0.4	3.7	13.7	-0.9	7.1	i
CCCc1nnc(SCc2ccc(OC)cc2)n1N	x	-1.4	-18.3	-0.8	1.1	x	x	x	7.0	x
Cc1ccc(C)c(C(=O)OCC(=O)Nc2cccc(S(=O)(=O)NC3=NCCCCC3)c2)c1	0.6	0.6	-0.3	-7.9	-3.7	-10.0	-8.2	3.1	2.8	x
COc1cc(NC(=O)CCc2nnc3ccc(N4CCC(C)CC4)nn23)cc(OC)c1	-4.2	-4.9	-2.8	3.1	-0.7	-6.1	-11.5	-1.6	17.5	i
O=C(Nc1ccc(C(=O)N2CCOCC2)cc1)c1cccs1	x	4.4	-8.5	-1.0	-7.3	x	x	x	-2.2	x
CCOC(=O)C1CCN(C(c2cc3cc(C)cc(C)c3[nH]c2=O)c2nnnn2C2CCCCC2)CC1 (stereo not drawn)	x	-3.7	30.0	4.2	-1.2	x	x	x	-0.6	x
COCCNC(=O)C1CCN(Cc2cccc(OCc3ccccc3)c2)CC1	-0.2	1.2	-9.1	-6.6	-3.1	0.7	1.2	0.5	-4.1	i
c1ccc2c(c1)oc1c(NCCCN3CCOCC3)ncnc12	x	-0.3	2.4	6.1	-6.7	x	x	x	-1.7	x
COc1ccc(NC(=S)NNC(=O)CCn2cc([N+](=O)[O-])cn2)cc1	-1.4	-0.9	-1.5	-2.9	19.1	22.8	21.6	4.8	-28.0	i
O=C(/C=C/c1ccc2c(c1)OCO2)NCc1ccco1	10.4	6.8	-9.8	-12.3	3.9	-5.0	-2.1	1.0	16.1	i
Cc1ccc(-n2ncc3c2CC(C)(C)CC3NC(=O)c2cc[n+]([O-])cc2)cc1 (stereo not drawn)	-1.7	4.7	-5.3	-6.7	0.2	-0.6	7.1	-1.1	-2.6	i
Cc1noc(C)c1COC(=O)[C@H](C)NS(=O)(=O)c1ccc(Cl)c(Cl)c1	x	-2.8	4.7	0.0	-9.2	x	x	x	-2.5	x

Later entries:
SMILES	MLL AF4-AF9 inh	RanGTP-Impb inh	T cruzi repl	Beta cell apopt	ALR inh	Ecoli rRNA inh	Ecoli rRNA inh OD600	Ecoli rRNA inh RFP	Calb FLC	FGF22 binding
N#CC(C#N)=Cc1cc2ccccc2nc1N1CCCCC1	15.9	2.1	0.4	x	4.6	-9.6	-10.2	-1.1	-4.2	i
O=C(CN1CCC(NC(=O)Cc2ccccc2)CC1)Nc1cccc2ccccc12	-9.0	-5.9	-9.8	-8.5	-4.5	-19.4	-14.1	-6.5	u	x
COc1cc(SC)ccc1C(=O)NNC(=O)C1COc2ccccc2O1 (stereo not drawn)	-2.2	x	x	-1.7	0.3	0.7	2.4	-0.1	x	i
O=C(NCCCN1CCOCC1)C(=O)NCC1OCCN1S(=O)(=O)c1ccc(Br)cc1 (stereo not drawn)	-2.7	0.2	-7.1	-1.7	-15.8	3.7	0.4	0.3	13.1	i
COc1ccc(-c2csc3ncn(Cc4ccccc4)c(=O)c23)cc1	2.6	-0.1	-6.3	2.8	-10.9	-13.6	-16.9	11.6	14.2	i
Cc1cc(C)nc(SC2CC(=O)N(c3ccc(C)c(C)c3)C2=O)n1 (stereo not drawn)	1.2	-10.4	1.4	-0.5	2.1	-0.8	-5.8	-5.2	-11.5	i
CCOC(=O)N1CCN(S(=O)(=O)c2ccc(C(=O)N(CCCN(C)C)c3nc4c(C)c(C)ccc4s3)cc2)CC1	26.0*	0.1	49.1	x	-2.2	-5.7	-5.2	10.3	-5.8	i
O=C(NCc1cccc(Br)c1)C1CC2Cn3c(nc4ccccc43)C2N1Cc1ccccc1 (stereo not drawn)	0.5	1.0	7.6	3.9	3.3	7.8	3.6	-2.4	1.3	i
O=C(Oc1cccnc1)c1ccc([N+](=O)[O-])cc1	-1.0	4.3	-40.7	-5.2	-7.8	2.5	12.5	3.2	-5.9	i
Cc1ccccc1CNC(=O)CCn1nc(C)c2c(C)n(-c3ccccc3)nc2c1=O	-3.2	-1.2	-6.6	-2.5	-0.5	18.8	0.5	-2.5	-12.3	i
COc1ccc2c(c1)nc(SCC(=O)c1cccs1)n2C	11.1	u	-22.6	-10.4	2.0	7.5	3.0	0.6	-6.8	i
CCCOc1ccc2nc(C)c(CCC)c(SC(=N)N)c2c1	1.6	0.5	-9.3	-6.3	-11.2	10.1	-0.9	3.1	-5.2	i
COc1ccc(CNC(=O)COC(=O)c2ccc(C)c(S(=O)(=O)N3CCOCC3)c2)cc1OC	0.8	x	x	0.2	-7.5	-1.4	-0.5	4.3	x	i
CCOC(=O)CN(C(=O)c1ccccc1[N+](=O)[O-])C(C)(C)C	-1.2	-4.1	5.7	-8.4	-1.6	5.2	-1.6	0.1	-3.4	i
Cc1c(C(=O)N2CCc3ccccc3C2)oc2ccc(Br)cc12	-1.4	u	2.4	-8.7	3.0	-4.5	-15.9	3.5	-3.5	i
CC(C)CC1Nc2ncnc(N3CCCCC3)c2N(Cc2ccc(Br)cc2)C1=O (stereo not drawn)	3.8	0.8	36.0	-1.7	6.4	-11.6	-11.6	-4.6	-0.9	i
CN1CCN(CCCNC(=O)c2ccc(/C=C3\Oc4ccccc4N(Cc4ccccc4F)C3=O)cc2)CC1	2.7	3.6	25.0	4.6	-7.1	4.7	-16.1	15.4	32.5	i
CC[n+]1ccc(C)c2cc(SC(F)(F)F)ccc21	x	3.9	16.4	-0.2	-9.1	x	x	x	-31.9	x
O=C(O)c1ccccc1C(=O)Nc1ccc(-n2ccc(C(F)(F)F)n2)cc1	4.7	-1.2	-0.6	-9.5	0.3	10.2	-15.1	-0.5	5.2	i
CCN1CCN(c2ccc(Cl)cc2NC(=O)c2ccc(-n3nc(C)cc3C)cc2)CC1	9.2	x	x	3.3	1.0	x	x	x	x	i
Cc1nc2ccccc2nc1CN1CCC(CO)(CC2CCCCO2)CC1 (stereo not drawn)	x	2.6	2.3	0.8	-5.7	x	x	x	6.6	x
Cc1ccccc1NC(=O)COC(=O)C1CC2CCCC(C1)C2=O (stereo not drawn)	-3.3	x	x	2.7	1.0	6.3	9.8	2.0	x	i
Cc1cc2ccccn2c1C(=O)c1cccc([N+](=O)[O-])c1	1.1	1.6	-12.5	-4.7	x	17.2	9.4	1.0	39.5	i
Cc1cc2c(NC3CCCCC3)ncnc2s1	-6.6	-5.1	-29.3	18.2	51.6	-16.3	-20.3	-2.2	1.7	i
O=C1C=C(c2ccc(Cl)c(C(F)(F)F)c2)C[C@@H](c2ccc3c(c2)OCO3)C1	4.7	x	x	-2.7	-3.1	9.8	10.3	7.5	x	i

As entered above.
Result of `CCOC(=O)N1CCN(S(=O)(=O)c2ccc(C(=O)N(CCCN(C)C)c3nc4c(C)c(C)ccc4s3)cc2)CC1` in ALR inh: -2.2
Result of `COc1cc(SC)ccc1C(=O)NNC(=O)C1COc2ccccc2O1` (stereo not drawn) in MLL AF4-AF9 inh: -2.2

Remaining list, next part.
SMILES	MLL AF4-AF9 inh	RanGTP-Impb inh	T cruzi repl	Beta cell apopt	ALR inh	Ecoli rRNA inh	Ecoli rRNA inh OD600	Ecoli rRNA inh RFP	Calb FLC	FGF22 binding
C=CCC1C=CCC(CC=C)N1C(=O)c1ccccc1[N+](=O)[O-] (stereo not drawn)	x	2.4	12.0	-17.7	-23.3	x	x	x	23.5	x
COc1ccc(NS(=O)(=O)c2ccc(N3CCCC3=O)cc2)cn1	1.7	-2.1	-12.6	16.3	-7.4	12.8	10.6	3.3	-5.4	i
CC1(C)C(CO)=CC(=O)C2=C1SCC(=O)N2	-0.3	0.2	-8.6	0.5	-7.2	22.1	15.1	1.3	-0.4	i
Cc1ccc(OCC(=O)Nc2ccc(N3CCOCC3)cc2)c([N+](=O)[O-])n1	-0.6	-2.4	-11.0	-1.3	-0.7	1.9	-4.5	-3.9	3.5	i
CCOc1ccc(S(=O)(=O)NCc2cccnc2)cc1	-0.1	-3.2	8.1	x	-8.1	9.4	14.2	6.2	6.4	i
Cc1c(NC(=O)C(C)Oc2ncnc3ccccc23)c(=O)n(-c2ccccc2)n1C (stereo not drawn)	x	-3.1	-3.6	-0.9	-9.7	x	x	x	1.6	x
CC(C)N(Cc1nc(-c2ccccc2)no1)C(=O)CCCN1C(=O)c2ccccc2C1=O	x	u	1.8	1.2	-2.3	x	x	x	-9.8	x
COc1ccc([C@@H]2C[C@@H](c3ccccc3)Oc3cc(C)cc(C)c32)cc1	-5.8	-1.7	-13.3	x	x	20.9	14.6	-3.2	-3.2	i
